# YB-1 expr inh: YB-1 expression inhibition; 30,000 compounds, 0.37% hits; U2OS, qRT-PCR YB-1 vs CDIP delta delta Cp, 16 h; active compounds read high; zero = DMSO, each unit about twofold; AID 434959; delta delta Cp (YB-1 minus CDIP) (concentration not given with the values);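 active = delta delta Cp rounded down to an integer at or above 3, about 3 SD of DMSO wells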;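 also: higher means less YB-1 transcript or more CDIP transcript relative to DMSO; stock transfer was 100 nL into about 100 µL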
# MITF inh: MITF inhibition; TRPM1 promoter luciferase, luminescence, 24 h; inhibition, % (concentration not given with the values); 37,000 compounds, 0.28% hits; AID 2240;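 active = most replicates at 85% or more, or half of them and the mean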;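 also: human melanocyte line stably carrying TRPM1 promoter luciferase reporter; 0% = vehicle wells and 100% = a positive control; the first replicate is given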
# Starred values were filed as active, the others as inactive; . = not tested or not shown.
SMILES,YB-1 expr inh,MITF inh
N#Cc1c(NC(=O)CCCOc2ccc(Cl)cc2Cl)sc2c1CCCC2,.,-4
COc1ccc(NC(=O)CN(c2cc(Cl)cc(Cl)c2)S(C)(=O)=O)cc1Cl,.,11
Cc1ccc(C(=O)O)cc1NC(=O)CCN1C(=O)c2ccccc2C1=O,.,-4
O=C(CNC(=O)c1ccc([N+](=O)[O-])cc1)Nc1cccc(C(F)(F)F)c1,.,13
CCn1c(SCC(=O)Nc2cc(F)ccc2C)nnc1-c1ccccc1O,.,0
CC(C)NS(=O)(=O)c1ccc(NC(=O)C2CCCCC2C(=O)O)cc1 (stereo not given),.,-17
CCn1c(SCc2nc(-c3ccc(Br)cc3)no2)nnc1-c1c[nH]c2ccccc12,.,13
Nc1nc(SCC(=O)c2ccc(-c3ccccc3)cc2)n[nH]1,.,-92
Cc1ccc(NC(=O)COc2ccc(Cl)cc2)cc1NC(=O)c1ccccc1,.,9
COC(=O)c1cccc(COC(=O)c2cc(=O)[nH]c3ccccc23)c1,.,2
Cc1ccc(C(=O)CSc2nnc(-c3ccccc3[N+](=O)[O-])o2)cc1,.,-17
O=C(Nc1ccc(Cl)cc1C(=O)NCCN1CCOCC1)c1ccc(Cl)cc1Cl,.,-3
N#Cc1cc2c(nc1SCC(=O)Nc1cccc(F)c1)CCCC2,.,-28
CCOc1ccc(C)cc1S(=O)(=O)NCc1ccco1,.,-17
CCN(CC(=O)Nc1ccccc1C(F)(F)F)S(=O)(=O)c1ccc(C)cc1,.,0
CC1(C)Cc2c(sc3c2c2ncnn2c2nnc(SCC(=O)c4ccc(Br)cc4)n32)CO1,.,-6
CS(=O)(=O)N(CC(=O)O)c1ccc(F)c(Cl)c1,.,-15
CCOC(=O)C1CCCCN1Cc1cc(OC)ccc1OC (stereo not given),.,-5
O=C(CN1C(=O)c2ccccc2S1(=O)=O)Nc1ccccc1-c1ccccc1,.,-10
O=C(CSc1nc(N2CCCCC2)nc(N2CCCCC2)n1)c1ccccc1,.,-12

# 4 structures already listed, sorted by molar mass, largest number first.
SMILES,YB-1 expr inh,MITF inh
CC1(C)Cc2c(sc3c2c2ncnn2c2nnc(SCC(=O)c4ccc(Br)cc4)n32)CO1,.,-6
O=C(CSc1nc(N2CCCCC2)nc(N2CCCCC2)n1)c1ccccc1,.,-12
Cc1ccc(C(=O)CSc2nnc(-c3ccccc3[N+](=O)[O-])o2)cc1,.,-17
CCOc1ccc(C)cc1S(=O)(=O)NCc1ccco1,.,-17

# Additional records
SMILES,YB-1 expr inh,MITF inh
COc1ccc(-c2csc(Cc3nc(-c4cc5ccccc5oc4=O)cs3)n2)cc1,.,48
O=C(Nc1ccccc1C(=O)O)c1cccc(S(=O)(=O)Nc2cccc(Br)c2)c1,.,8
Cc1cc(C)nc(SC(C)C(=O)Nc2ccc(S(N)(=O)=O)cc2)n1 (stereo not given),.,-10
COc1ccccc1C1(CC(=O)O)CCOC(C(C)C)C1 (stereo not given),.,-13
Cc1cccc(CSc2nnc(NC(=O)c3oc4ccc(F)cc4c3C)s2)c1,.,-14
COc1ccc(NC(=O)CSC2CC(=O)N(c3ccccc3C)C2=O)cc1 (stereo not given),.,-19
O=c1c2ccccc2[nH]c(=S)n1CCCN1CCN(Cc2ccccc2)CC1,.,4
Cc1ccc(NC(=O)CCC(=O)O)cc1F,.,-5
Cc1cc(=O)[nH]c(SCc2nc3ccc([N+](=O)[O-])cc3[nH]2)n1,.,-19
Cc1ccc(C)c(NC(=O)CSc2c(C)n[nH]c2C)c1,.,-29
COC(=O)c1ccc(Cl)c(NC(=O)CN2CCN(C)CC2)c1,.,-8
COc1ccc(OC)c(CN2CCN(Cc3cccc([N+](=O)[O-])c3)CC2)c1,.,-35
Cc1cc(C)c(NC(=O)COc2ccccc2C(=O)Nc2ccc3c(c2)oc2ccccc23)c(C)c1,.,8
OCCCc1nc2ccccc2n1Cc1c(F)cccc1Cl,.,-2
Cc1ccc(S(=O)(=O)NC(C)C(=O)Nc2cccc(C(F)(F)F)c2)cc1 (stereo not given),.,10
CCC(Sc1nnnn1C)C(=O)Nc1cccc([N+](=O)[O-])c1 (stereo not given),.,10
CCOC(=O)c1c(-c2ccc(C)o2)csc1NC(=S)NC(=O)c1ccccc1Br,.,-7
CCn1c(SCc2nc3ccccc3c(=O)[nH]2)nnc1-c1cccnc1,.,4
COc1ccc(CCNc2nc(-c3ccc(NC(C)=O)cc3)cs2)cc1OC,.,0
CCOc1ccc(Br)cc1CNCc1cccnc1,.,6
COC(=O)c1c(-c2cccnc2)csc1NC(=O)c1cc(-c2ccc(C)o2)nc2ccccc12,.,-34
O=C(COc1ccccc1Cl)Nc1cccc(Oc2ccc3c(c2)C(=O)NC3=O)c1,.,-15
Cc1ccnc(NS(=O)(=O)c2ccc(NS(C)(=O)=O)cc2)n1,.,-14
COc1ccc([N+](=O)[O-])cc1NC(=O)CN(c1ccc(Br)c(C)c1)S(C)(=O)=O,.,-11
CCc1cc2c(NC(Cc3c[nH]c4ccccc34)C(=O)O)nc(C)nc2s1 (stereo not given),.,23
CN(C)c1nc(N)nc(CSc2n[nH]c(-c3ccccc3)n2)n1,.,-44
O=C(CSc1ccccn1)Nc1c(C(=O)c2ccc(F)cc2)oc2ccccc12,.,-20
COc1ccc(OC)c(NC(=O)C(C)N(c2ccc(C)c(C)c2)S(C)(=O)=O)c1 (stereo not given),.,-5
CN1CCN(CC(=O)Nc2sc3c(c2C#N)CCC(C(C)(C)C)C3)CC1 (stereo not given),.,-16
O=C(Nc1ccc(S(=O)(=O)Nc2ncccn2)cc1)c1ccc2c(c1)OCCO2,.,-15
COc1ccc([Si](C)(C)[C@H]2[C@H](CCn3cc(CCO)nn3)O[C@@]3(C(=O)N(Cc4cccc(N5CCC5=O)c4)c4ccccc43)[C@@H]2C)cc1,0.11,.
O=C(NCc1ccccc1)[C@@]1(CCS(=O)(=O)c2ccccc2)COC(c2ccc(OCCCO)cc2)=N1,0.26,.
O=C(NO)c1ccc(C(=O)N/N=C/c2cc(Br)ccc2O)cc1,-0.39,.
C[C@H]1CN([C@@H](C)CO)C(=O)CCCn2cc(nn2)CO[C@@H]1CN(C)Cc1ccncc1,-0.62,.
C[C@@H]1CN([C@@H](C)CO)C(=O)CCCn2cc(nn2)CO[C@@H]1CN(C)C(=O)Oc1ccccc1,-0.46,.
Cc1cccc(S(=O)(=O)N(C)C[C@H]2OCc3cnnn3CCCC(=O)N([C@@H](C)CO)C[C@H]2C)c1,-0.12,.
CC(C)S(=O)(=O)N[C@@H]1CCN(Cc2ccc(OCCO)cc2)C1,0.17,.
CN(C)CCCOc1ccc(/C=N/NC(=O)c2ccccn2)cc1,-0.26,.
C[C@H]1CN([C@@H](C)CO)C(=O)CCCn2cc(nn2)CO[C@H]1CN(C)Cc1cccc2c1OCCCO2,0.34,.
C[C@H](CO)N1C[C@H](C)[C@H](CN(C)C(=O)Nc2cccc3ccccc23)Oc2ncc(-c3ccccc3)cc2C1=O,0.17,.
C[C@H](CO)N1C[C@H](C)[C@H](CN(C)C(=O)Nc2ccc(F)cc2)Oc2ncc(/C=C/c3ccccc3)cc2C1=O,-0.39,.
C[C@H]1CN([C@@H](C)CO)C(=O)CCCn2nncc2CO[C@H]1CN(C)CC1CC1,-0.28,.
C[C@H](CO)N1C[C@H](C)[C@@H](CN(C)C(=O)CCCN(C)C)OCc2cn(nn2)CCCC1=O,0.016,.
NC(=O)NCC#Cc1ccc2c(c1)[C@]1(C(=O)N2)[C@H](C(N)=O)[C@H]2C(=O)O[C@H](c3ccccc3)[C@H](c3ccccc3)N2[C@@H]1c1ccccc1OCCO,0.0087,.
C[C@H](CO)N1C[C@H](C)[C@@H](CN(C)S(=O)(=O)c2ccc(Cl)cc2)OCc2cnnn2CCCC1=O,-0.098,.
Cc1ccc(O)c(/C=N/NC(=O)c2ccccn2)c1,-0.88,.
C[C@H]1CN([C@@H](C)CO)C(=O)CCCn2nncc2CO[C@@H]1CN(C)S(=O)(=O)c1ccc(Cl)cc1,0.084,.
COC(=O)N(C)C[C@H]1OCc2cnnn2CCCC(=O)N([C@@H](C)CO)C[C@@H]1C,-0.12,.
C[C@H]1CN([C@@H](C)CO)C(=O)CCCn2cc(nn2)CO[C@@H]1CN(C)Cc1ccc2cccnc2c1,0.043,.
Cc1cccc(CN(C)C[C@@H]2OCc3cnnn3CCCC(=O)N([C@@H](C)CO)C[C@@H]2C)c1,-0.43,.
# The listing continues:
SMILES,YB-1 expr inh,MITF inh
C[C@H]1CN([C@@H](C)CO)C(=O)CCCn2cc(nn2)CO[C@H]1CN(C)Cc1ccccc1C(F)(F)F,-0.49,.
COc1ccc([Si](C)(C)[C@@H]2[C@@H](CC(=O)N3Cc4ccccc4C[C@H]3CO)O[C@]3(C(=O)N(Cc4ccc(I)cc4)c4ccccc43)[C@H]2C)cc1,-0.079,.
COc1ccc(C#Cc2cnc3c(c2)C(=O)N([C@H](C)CO)C[C@H](C)[C@H](CN(C)C(=O)NC2CCCCC2)O3)cc1OC,-0.63,.
O=C(CCCCCCC(=O)N/N=C/c1ccc(CO)o1)NO,-0.64,.
O=C(CCCCCCC(=O)Nc1ccccc1O)N/N=C/c1c[nH]c2ccccc12,0.076,.
C[C@H](CO)N1C[C@H](C)[C@@H](CN(C)C(=O)Nc2ccnc(N3CCOCC3)c2)OCc2cn(nn2)CCCC1=O,-0.81,.
C=CCN1C(=O)[C@@]2(O[C@@H](CCn3cc(CCO)nn3)[C@H]([Si](C)(C)c3ccc(OC)cc3)[C@H]2C)c2cc(N3C(=O)c4cccc5cccc3c45)ccc21,-0.28,.
O=C(C1=C[C@@H](c2ccc3c(c2)Cc2ccccc2-3)C[C@@H](OCCCCO)O1)N1CCN(Cc2ccc3c(c2)OCO3)CC1,0.11,.
Cc1cccc(S(=O)(=O)N(C)C[C@@H]2OCc3cnnn3CCCC(=O)N([C@H](C)CO)C[C@@H]2C)c1,-0.17,.
C[C@H](CO)N1C[C@H](C)[C@H](CN(C)S(=O)(=O)c2cccc(F)c2)Oc2ncc(-c3cc4ccccc4o3)cc2C1=O,-0.22,.

# Complete entries from above. Order of screens: YB-1 expr inh	MITF inh
# Shown for C[C@H](CO)N1C[C@H](C)[C@H](CN(C)S(=O)(=O)c2cccc(F)c2)Oc2ncc(-c3cc4ccccc4o3)cc2C1=O = -0.22	.
# Shown for Cc1cccc(S(=O)(=O)N(C)C[C@@H]2OCc3cnnn3CCCC(=O)N([C@H](C)CO)C[C@@H]2C)c1 = -0.17	.
# Shown for C[C@H]1CN([C@@H](C)CO)C(=O)CCCn2cc(nn2)CO[C@H]1CN(C)Cc1ccccc1C(F)(F)F = -0.49	.
# Shown for O=C(CCCCCCC(=O)N/N=C/c1ccc(CO)o1)NO = -0.64	.

# (further entries)
SMILES,YB-1 expr inh,MITF inh
O=C(N/N=C/c1ccccc1Br)c1ccccc1O,0.17,.
COc1ccc([Si](C)(C)[C@H]2[C@H](CCO)O[C@@]3(C(=O)N(Cc4cccc(NC(C)=O)c4)c4ccccc43)[C@@H]2C)cc1,0.29,.
CC(C)N1C(=O)[C@@]2(Cc3ccccc31)c1ccccc1C(=O)N(Cc1ccccc1Cl)[C@H]2c1ccc(CO)cc1,-0.52,.
COc1cc(/C=N\NC(=O)CCCCCCC(=O)NO)c(Br)cc1O,-0.22,.
O=C(NO)c1ccc(C(=O)N/N=C/c2cccc(Oc3ccccc3)c2)cc1,0.61,.
C[C@H](CO)N1C[C@H](C)[C@H](CN(C)C(=O)Nc2ccc3c(c2)OCO3)Oc2ncc(C#Cc3ccccc3)cc2C1=O,-0.16,.
C[C@H](CO)N1C[C@H](C)[C@H](CN(C)C(=O)Nc2ccccc2)Oc2ncc(C#Cc3cccc(F)c3)cc2C1=O,-0.065,.
O=C(O)CCCCCC(=O)N/N=C/c1cc(F)ccc1O,0.39,.
O=C(O)C1=C[C@@H](c2ccc3c(c2)Cc2ccccc2-3)C[C@@H](OCCCCO)O1,-0.023,.
C[C@@H]1CN([C@H](C)CO)C(=O)CCCn2nncc2CO[C@@H]1CN(C)C(=O)CCC(F)(F)F,-0.34,.
COC(=O)CCCCCCC(=O)N/N=C/c1coc2ccccc2c1=O,-0.16,.
C[C@H]1CN([C@@H](C)CO)C(=O)CCCn2cc(nn2)CO[C@@H]1CN(C)C,-0.12,.
COCCOC(=O)N1C(=O)[C@@]2(c3ccccc31)[C@H](C(=O)NC[C@H](O)c1ccccc1)[C@H]1C(=O)O[C@H](c3ccccc3)[C@H](c3ccccc3)N1[C@@H]2c1ccc(OCCO)cc1,0.33,.
COCCCNC(=O)[C@@]1(C)c2ccccc2C(=O)N(Cc2ccc(OC(F)(F)F)cc2)[C@H]1c1ccc(CO)cc1,0.1,.
C=CCOC(=O)[C@@H]1[C@H]2C(=O)O[C@H](c3ccccc3)[C@H](c3ccccc3)N2[C@H](c2ccc(OCCOC(=O)[C@H]3C[C@H]4C(=O)N5CCC[C@H]5C(=O)N4[C@H]3c3ccc(O)cc3)cc2)[C@@]12C(=O)Nc1ccccc12,-0.09,.
C[C@H]1CN([C@@H](C)CO)C(=O)CCCn2nncc2CO[C@H]1CN(C)Cc1ccc(Oc2ccccc2)cc1,0.4,.
COc1ccccc1CN1C(=O)c2ccccc2[C@@]2(Cc3ccccc3N(CCCN(C)C)C2=O)[C@@H]1c1ccc(CO)cc1,0.0041,.
NC(=O)[C@@H]1[C@H]2C(=O)O[C@H](c3ccccc3)[C@H](c3ccccc3)N2[C@H](c2ccccc2OCCO)[C@@]12C(=O)Nc1ccc(C#CC3=CCCCC3)cc12,-0.17,.
C[C@@H]1CN([C@@H](C)CO)C(=O)CCCn2cc(nn2)CO[C@@H]1CN(C)S(=O)(=O)c1cccs1,-0.13,.
Cc1ccc(S(=O)(=O)N(C)C[C@H]2OCc3cnnn3CCCC(=O)N([C@@H](C)CO)C[C@H]2C)cc1,-0.053,.
C[C@H](CO)N1C[C@H](C)[C@H](CN(C)S(=O)(=O)c2ccc(F)cc2)Oc2ncc(C#CCN(C)C)cc2C1=O,0.2,.
C=CC[C@@]1(C(=O)NCc2ccccc2)N=C(c2ccc(OCCCO)cc2)O[C@@H]1c1ccccc1,0.25,.

# Assay outcomes from PubChem.

# An excerpt (hit frequency here may not be typical).
